PINK1 modulator: A Quantitative High throughput Screen to Identify Chemical Modulators of PINK1 Expression; PINK1 immunofluorescence, high-content cytometry, 24 h; Potency, µM (doses to about 76.6 µM), for the others: top-dose activation (PINK1 increase), actives largely listed as activators; actives 0.2% (n = 410,000); active = well fitted activation curve with a large enough effect; inconclusive = small, poorly fitted or top-dose-only effect; inactive = flat fitted curve, though single readings scatter; cell line not stated here;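 also: potency is read from the fitted curve at half-maximal effect; % of control where 0% means no effect; nearly all actives have a fitted effect of over 65% in size; a mitochondrial uncoupler was the plate control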
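Cells are seeded, rested 12 hours, then given compound at five concentrations or DMSO for 24 hours. After fixation, blocking and antibody staining, PINK1 amount and mitochondrial localization are scored; CCCP serves as control.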
Six1-Eya2 inh: qHTS Assay for Inhibitors of the Six1/Eya2 Interaction; Homeobox protein SIX1 (Homo sapiens) + Protein phosphatase EYA2 (Homo sapiens), …; AlphaScreen GST-Six1/His-Eya2 binding, biochemical; stronger effect = lower value; control for the full effect not named in the record; activity change, % (no concentration beside the values); actives 0.56% (n = 360,000); in the data active = activity change below about -65%; inconclusive = about -30% to -65%; inactive = above about -30%; also: % is scaled to controls: 0 for no effect and ±100 for the full control effect; compound concentration not given in the record
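Six1/Eya2 binding was read as AlphaScreen signal after compounds were pinned into GST-Six1 plus His-tagged Eya2 (5X stock 250/500 nM) in pH 8.0 Tris/NaCl/TCEP buffer, beads added, then incubated 1 h, 37 C, dark.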
TRPML1 agonist: qHTS for Agonists of the Human Mucolipin Transient Receptor Potential 1 (TRPML1). Mucolipin-1 (Homo sapiens), Q9GZU1. activation, % (no concentration beside the values). TRPML1-expressing cells, Ca2+ dye fluorescence, FDSS; host cell line not named in the record; reference of the full effect not given here. actives 0.12% (n = 410,000); in the data active = activation above about 50%; inconclusive = about 30% to 50%; inactive = below about 30%; also: 0% is about no effect; the text of the record puts the active cut at 80%
Target sequence (Q9GZU1 whole entry, looked up): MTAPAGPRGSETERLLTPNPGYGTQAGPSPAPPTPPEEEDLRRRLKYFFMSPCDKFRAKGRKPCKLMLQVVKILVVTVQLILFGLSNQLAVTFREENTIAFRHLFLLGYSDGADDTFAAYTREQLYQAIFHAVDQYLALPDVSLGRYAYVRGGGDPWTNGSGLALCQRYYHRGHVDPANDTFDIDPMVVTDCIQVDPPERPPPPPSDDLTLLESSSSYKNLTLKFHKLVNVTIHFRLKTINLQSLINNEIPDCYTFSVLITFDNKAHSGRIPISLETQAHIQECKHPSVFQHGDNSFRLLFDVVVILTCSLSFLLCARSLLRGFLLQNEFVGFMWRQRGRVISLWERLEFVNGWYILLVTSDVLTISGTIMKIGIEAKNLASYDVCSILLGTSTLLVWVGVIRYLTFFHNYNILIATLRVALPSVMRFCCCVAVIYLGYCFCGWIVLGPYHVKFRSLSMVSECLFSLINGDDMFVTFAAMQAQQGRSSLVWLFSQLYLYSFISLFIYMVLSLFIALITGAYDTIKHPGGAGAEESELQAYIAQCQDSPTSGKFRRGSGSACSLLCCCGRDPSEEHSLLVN
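Tet-induced TRPML1-DL cells, 1,500 per well, cultured overnight, were loaded with a no-wash Ca2+ dye for 45–90 min. Calcium fluorescence was recorded on the FDSS for 110 s after compound addition, before the EC80 agonist (4 uM 54-4) was added.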
TRPML1 blocker: qHTS for Inhibitors of the Human Mucolipin Transient Receptor Potential 1 (TRPML1); Mucolipin-1 (Homo sapiens), Q9GZU1; TRPML1-inducible cells, Ca2+ dye fluorescence, FDSS; stronger effect = lower value; inhibition of EC80 agonist-evoked calcium signal; activity change, negative = inhibition, % (no concentration beside the values); actives 0.02% (n = 390,000); in the data active means activity change below about -50%; inconclusive means about -30% to -50%; inactive means above about -30%;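 also: stimulus is agonist 54-4 at its EC80 concentration; % is scaled to controls: 0 for no effect and ±100 for the full control effect; compound concentration not given in the record; the text of the record puts the active cut at -80%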
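Calcium fluorescence in TRPML1-DL cells induced overnight with Tet: a 110 s read after compound pin addition, then a 110 s antagonist read after challenge with 54-4 at 4 uM final (EC80).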
D2 agonist: Beta-Arrestin HTS for Positive Allosteric Modulators of the Human D2 Dopamine Receptor: Agonists; DiscoveRx PathHunter D2 beta-arrestin, luminescence, 90 min; 100% = 57 uM dopamine signal; D(2) dopamine receptor (Homo sapiens), P14416; activation, % (test concentration not listed); actives 0.084% (n = 360,000); AID 624465, 2012; in the data active = activation above about 40%; inconclusive = about 15% to 40%; inactive = below about 15%; also: compound concentration not given in the record; the text of the record calls up to 30% inactive
Target sequence (P14416 whole entry, looked up): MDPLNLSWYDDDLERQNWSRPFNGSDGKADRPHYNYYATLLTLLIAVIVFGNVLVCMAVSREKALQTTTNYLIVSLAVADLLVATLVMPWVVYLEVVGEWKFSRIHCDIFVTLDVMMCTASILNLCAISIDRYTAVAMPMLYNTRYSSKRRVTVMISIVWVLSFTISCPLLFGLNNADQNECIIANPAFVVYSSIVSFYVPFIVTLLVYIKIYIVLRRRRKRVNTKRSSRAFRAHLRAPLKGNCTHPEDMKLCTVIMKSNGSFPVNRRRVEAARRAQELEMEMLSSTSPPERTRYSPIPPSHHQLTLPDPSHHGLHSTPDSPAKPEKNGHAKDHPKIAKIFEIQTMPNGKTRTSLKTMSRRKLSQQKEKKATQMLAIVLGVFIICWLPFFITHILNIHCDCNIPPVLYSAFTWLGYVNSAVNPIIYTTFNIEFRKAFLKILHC
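DiscoveRx PathHunter D2 beta-arrestin cells (2,100/well) attached overnight, then compound-stimulated 90 min at 37 C in HBSS/10 mM HEPES/0.1% Tween-20 buffer; beta-galactosidase complementation read by luminescence after 1 h at ambient temperature. Dopamine 57 uM final (EC100) as control.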
D2 potentiator: Beta-Arrestin HTS for Positive Allosteric Modulators of the Human D2 Dopamine Receptor: Potentiators. D(2) dopamine receptor (Homo sapiens), P14416. DiscoveRx D2 beta-arrestin cells, luminescence, 90 min; 100% = 57 uM dopamine signal. potentiation, % (concentration not given with the values). actives 0.23% (n = 360,000); active = potentiation of 50% or more; inconclusive = 30% to 50%; inactive = 30% or less;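 also: compound concentration not given in the record; tested on top of an EC20 dose of dopamine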
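PathHunter D2 cells, attached overnight at 37 deg C, received compound in DMSO plus dopamine at EC20 (50 nM final) for 90 min at 37 deg C. Beta-arrestin recruitment was read as luminescence after 1 h with detection reagent at ambient temperature.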
Numbers without * were called inactive; [ ] = remark or other dose.

Results for Cc1nnc(NC(=O)CSc2nnc(CNC(=O)C34CC5CC(CC(C5)C3)C4)n2C2CCCCC2)s1 ?
PINK1 modulator: 2.4%; Six1-Eya2 inh: 3; TRPML1 agonist: -0.2; TRPML1 blocker: -3; D2 agonist: -7.8; D2 potentiator: -11

How did O=C(Nc1ccc(CN2CCCCC2)cc1)c1ccc2c(c1)OCO2 do in these assays?
PINK1 modulator: 4.0%[38.3 µM]; Six1-Eya2 inh: -12; TRPML1 agonist: -0.3; TRPML1 blocker: 9; D2 agonist: -2.7; D2 potentiator: -10

Results for COCCCNCCOc1ccccc1-c1ccccc1 ?
PINK1 modulator: -1.3%; Six1-Eya2 inh: 2; TRPML1 agonist: -0.2; TRPML1 blocker: 14; D2 agonist: -0.9; D2 potentiator: -13

What do the screens show for `COc1ccc(C(=O)Nc2ccc(Br)cc2F)cc1S(=O)(=O)N1CCCC1`?
PINK1 modulator: 5.7%; Six1-Eya2 inh: -5; TRPML1 agonist: 0.0; TRPML1 blocker: -20; D2 agonist: -0.3; D2 potentiator: -24

Results for O=C(Nc1cccc(Cl)c1)OC1CCCCc2cccnc21 (stereo not given) ?
PINK1 modulator: -1.3%; Six1-Eya2 inh: 5; TRPML1 agonist: -0.8; TRPML1 blocker: -18; D2 agonist: -2.6; D2 potentiator: -16

Results for CC(=O)c1c(C)[nH]c(C(=O)NCc2ccccn2)c1C ?
PINK1 modulator: 2.9%; Six1-Eya2 inh: 1; TRPML1 agonist: 0.7; TRPML1 blocker: -5; D2 agonist: 0.0; D2 potentiator: 0

How did CCN1C(C(=O)c2ccccc2)=C(OC(=O)c2ccccc2OC)c2ccccc2S1(=O)=O do in these assays?
PINK1 modulator: 1.9%; TRPML1 agonist: 0.3; TRPML1 blocker: 1

How did CCCCNc1nc2c(-c3cccc(C)c3)nnn2c2ccccc12 do in these assays?
PINK1 modulator: 0.7%; TRPML1 agonist: -0.6; TRPML1 blocker: 7

What do the screens show for `CC1CC(C)CN(C(=O)c2ccc(S(=O)(=O)N3CCCCC3)cc2)C1` (stereo not given)?
PINK1 modulator: -0.6%; Six1-Eya2 inh: -8; TRPML1 agonist: -0.1; TRPML1 blocker: 13; D2 agonist: -3.6; D2 potentiator: -10

What do the screens show for `CCOC(=O)Cc1csc(NC(=O)CCCCCN2C(=O)c3cccc4cccc(c34)C2=O)n1`?
PINK1 modulator: 6.2%; Six1-Eya2 inh: -19; TRPML1 agonist: -0.6; TRPML1 blocker: 0; D2 agonist: -3.6; D2 potentiator: -9

Results for CCOP1(=O)C=C(Sc2ccc([N+](=O)[O-])cc2[N+](=O)[O-])C(C)(C)O1 (stereo not given) ?
PINK1 modulator: -1.0%; Six1-Eya2 inh: 2; TRPML1 agonist: -0.2; TRPML1 blocker: -12; D2 agonist: inconclusive; D2 potentiator: 23

How did CCn1ccnc1CN1CCC(CO)(CCOc2ccccc2)CC1 do in these assays?
PINK1 modulator: 1.0%; Six1-Eya2 inh: -1; TRPML1 agonist: -0.7; TRPML1 blocker: -11; D2 agonist: 0.4; D2 potentiator: -7

What do the screens show for `Cc1cc(C)nc(CCNC(=O)c2cc(COc3ccc(F)cc3F)on2)n1`?
PINK1 modulator: 0.3%; Six1-Eya2 inh: -8; TRPML1 agonist: -0.7; TRPML1 blocker: -13; D2 agonist: -0.6; D2 potentiator: -4

What do the screens show for `Cc1cc(C)c(S(=O)(=O)N2CCN(C(=O)C3CCCO3)CC2)c(C)c1` (stereo not given)?
PINK1 modulator: 1.6%; Six1-Eya2 inh: 10; TRPML1 agonist: -0.5; TRPML1 blocker: 44; D2 agonist: 8.9; D2 potentiator: -6

What do the screens show for `Cc1ccc(C)c(NC(=O)COC(=O)COc2cccc3c2OC(C)(C)C3)c1`?
PINK1 modulator: -1.2%; Six1-Eya2 inh: 11; TRPML1 agonist: 1.4; TRPML1 blocker: -19; D2 agonist: -3.6; D2 potentiator: -2

What do the screens show for `CN(C)N=Nc1ccc(S(=O)(=O)NC(=O)Cc2ccccc2)cc1`?
PINK1 modulator: 1.2%; Six1-Eya2 inh: 3; TRPML1 agonist: 0.0; TRPML1 blocker: 2; D2 agonist: 6.4; D2 potentiator: -1

How did COc1cccc(N2CC(C(=O)NNC(=O)c3ccc(Cl)cc3)CC2=O)c1 (stereo not given) do in these assays?
PINK1 modulator: 1.8%; Six1-Eya2 inh: 0; TRPML1 agonist: 0.0; TRPML1 blocker: -17; D2 agonist: -0.7; D2 potentiator: -5

How did Fc1cccc(CCN2CCNC[C@H]2Cc2cccc3ccccc23)c1 do in these assays?
PINK1 modulator: -2.2%; Six1-Eya2 inh: 1; TRPML1 agonist: 0.2; TRPML1 blocker: -9; D2 agonist: -9.7; D2 potentiator: -15

Results for Nc1nnc(-c2ccccc2)s1 ?
PINK1 modulator: 12%[38.3 µM]; Six1-Eya2 inh: 3; TRPML1 agonist: 0.1; TRPML1 blocker: 19; D2 agonist: -2.0; D2 potentiator: -6

Results for O=C(C1CCC1)N1CCc2cc(S(=O)(=O)NCCN3CCN(c4ccccc4F)CC3)ccc21 ?
PINK1 modulator: 1.1%; Six1-Eya2 inh: -4; TRPML1 agonist: 0.5; TRPML1 blocker: 11; D2 agonist: inconclusive; D2 potentiator: -4

How did CCCCN(CC)C(=O)CN1C(=O)c2ccccc2C1=O do in these assays?
PINK1 modulator: 0.8%; Six1-Eya2 inh: -1; TRPML1 agonist: -1.0; TRPML1 blocker: 18; D2 agonist: -0.4; D2 potentiator: -7

What do the screens show for `Cc1cc(C)n(-c2nc3ccccc3nc2N2CCN(c3cccc(C(F)(F)F)c3)CC2)n1`?
PINK1 modulator: -0.6%; TRPML1 agonist: -0.3; TRPML1 blocker: 11

How did CC(C)(C)C1CCc2c(sc(NC(=O)C3CCCO3)c2C(N)=O)C1 (stereo not given) do in these assays?
PINK1 modulator: 3.2%; Six1-Eya2 inh: -5; TRPML1 agonist: 0.7; TRPML1 blocker: 4; D2 agonist: -1.8; D2 potentiator: 1

How did Cc1ccc2[nH]c(C)cc(=S)c2c1 do in these assays?
PINK1 modulator: -1.7%; Six1-Eya2 inh: 0; TRPML1 agonist: 0.1; TRPML1 blocker: 2; D2 agonist: -6.4; D2 potentiator: -42

How did Cc1cc(CN(C)C(=O)CC2C(=O)NCCN2Cc2c(F)cccc2Cl)on1 (stereo not given) do in these assays?
PINK1 modulator: -0.8%; Six1-Eya2 inh: -7; TRPML1 agonist: 0.4; TRPML1 blocker: -24; D2 agonist: -4.6; D2 potentiator: -11

How did CC(OC(=O)/C(C#N)=C/c1ccco1)C(=O)N(C)c1ccccc1 (stereo not given) do in these assays?
PINK1 modulator: 2.7%; Six1-Eya2 inh: -2; TRPML1 agonist: -0.7; TRPML1 blocker: 3; D2 agonist: 1.4; D2 potentiator: 0

Results for COc1ccc(NC(=O)COC(=O)c2ccc(S(=O)(=O)N3CCCC3)cc2)cc1OC ?
PINK1 modulator: 2.2%; Six1-Eya2 inh: 7; TRPML1 agonist: 2.4; TRPML1 blocker: 21; D2 agonist: 5.0; D2 potentiator: -1

What do the screens show for `CCn1ccc2cc(S(=O)(=O)N3CCC(C(=O)NCc4ccc(OC(C)C)cc4)CC3)ccc21`?
PINK1 modulator: 0.4%; TRPML1 agonist: 1.7; TRPML1 blocker: 13

How did Brc1ccc(C2=CC(c3cccs3)n3ncnc3N2)cc1 (stereo not given) do in these assays?
PINK1 modulator: 2.6%; Six1-Eya2 inh: -22; TRPML1 agonist: -0.8; TRPML1 blocker: -3; D2 agonist: -1.0; D2 potentiator: 2

What do the screens show for `Cc1ccc(C)c2nc(SCC(=O)Nc3ccc4c(c3)OCO4)c(C#N)cc12`?
PINK1 modulator: 0.1%; Six1-Eya2 inh: 1; TRPML1 agonist: -0.6; TRPML1 blocker: 7; D2 agonist: -1.5; D2 potentiator: -4

Results for O=C(CSc1ncnc2nc[nH]c12)Nc1ccccc1C(F)(F)F ?
PINK1 modulator: -0.6%; Six1-Eya2 inh: 8; TRPML1 agonist: -0.9; TRPML1 blocker: 8; D2 agonist: -3.6; D2 potentiator: -11

Results for NS(=O)(=O)c1ccc(CNC(=O)CCC2CCCCC2)cc1 ?
PINK1 modulator: -1.3%; Six1-Eya2 inh: 6; TRPML1 agonist: -0.1; TRPML1 blocker: -5; D2 agonist: -0.7; D2 potentiator: -9

What do the screens show for `CC(NC(=O)Cc1cccs1)c1ccncc1` (stereo not given)?
PINK1 modulator: -6.0%[38.3 µM]; Six1-Eya2 inh: -3; TRPML1 agonist: 0.2; TRPML1 blocker: 5; D2 agonist: 1.2; D2 potentiator: 6

What do the screens show for `Cn1c(COc2ccccc2)nnc1SCCC(=O)Nc1ccccc1`?
PINK1 modulator: 0.5%; Six1-Eya2 inh: 8; TRPML1 agonist: 0.2; TRPML1 blocker: 18; D2 agonist: -0.7; D2 potentiator: -13

How did Cc1c(NC(=O)CSc2nnc(-c3ccccc3F)o2)c(=O)n(-c2ccccc2)n1C do in these assays?
PINK1 modulator: 1.5%; Six1-Eya2 inh: 1; TRPML1 agonist: -0.4; TRPML1 blocker: 3; D2 agonist: -2.2; D2 potentiator: -3

How did COc1ccc(N2C(=O)CSC2c2ccncc2)cc1 (stereo not given) do in these assays?
PINK1 modulator: -1.1%; Six1-Eya2 inh: 5; TRPML1 agonist: -0.5; TRPML1 blocker: 5; D2 agonist: -1.1; D2 potentiator: -4

Results for Cc1oc2c(CN(C)C)c(O)ccc2c(=O)c1-c1ccc2ccccc2n1 ?
Six1-Eya2 inh: 4; TRPML1 agonist: 0.8; TRPML1 blocker: -6; D2 agonist: -1.5; D2 potentiator: 8

Arranged by length of the SMILES (descending): 3 of the compounds above
How did Cc1c(NC(=O)CSc2nnc(-c3ccccc3F)o2)c(=O)n(-c2ccccc2)n1C do in these assays?
PINK1 modulator: 1.5%; Six1-Eya2 inh: 1; TRPML1 agonist: -0.4; TRPML1 blocker: 3; D2 agonist: -2.2; D2 potentiator: -3

Results for O=C(CSc1ncnc2nc[nH]c12)Nc1ccccc1C(F)(F)F ?
PINK1 modulator: -0.6%; Six1-Eya2 inh: 8; TRPML1 agonist: -0.9; TRPML1 blocker: 8; D2 agonist: -3.6; D2 potentiator: -11

How did Brc1ccc(C2=CC(c3cccs3)n3ncnc3N2)cc1 (stereo not given) do in these assays?
PINK1 modulator: 2.6%; Six1-Eya2 inh: -22; TRPML1 agonist: -0.8; TRPML1 blocker: -3; D2 agonist: -1.0; D2 potentiator: 2

Source: PubChem BioAssay (National Center for Advancing Translational Sciences (NCATS))
